Assay outcomes deposited in PubChem BioAssay by several laboratories.
Mtb growth: M. tuberculosis H37Rv growth inhibitors, H37Rv strain (AID 1626); M. tuberculosis H37Rv growth inhibition; higher % means a stronger effect; one-dose inhibition, % at 10 µM; IC50 in µM for titrated hits; actives 0.95% (n = 220,000);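 active means confirmed in a dose series; inconclusive means inhibition above 80% but not taken into the dose series; inactive means below 80% or under 30% at every dose of the series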;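 further: bacteria incubated seven days before Alamar blue readout; 0% = bacteria only wells and 100% = bacteria with antibiotic wells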
Mtb bLac sens: beta-lactam sensitization of Mtb H37Rv | M. tuberculosis H37Rv growth with meropenem, percent inhibition; hits of this screen are not shown here | inhibition, % at 25 µM | actives 0.27% (n = 330,000) | AID 434955;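 active means about 74% or more and at least 40 points above the plate without the antibiotic, then above 30% in a dose series; inconclusive means first-round hits that could not be retested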;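 further: growth measured after seven days incubation then overnight dye step; 0% = bacteria only wells and 100% = bacteria with antibiotic; twin plates without the antibiotic show which effects depend on it; some results filed as inactive read as strong as hits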
Arbovirus anti: blocks arbovirus infection. actives 0.37% (n = 200,000). inhibition, % at 10 µM. arbovirus infection cell-based antiviral screen;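 active means inhibition from about 30%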;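 further: bluetongue infection of BSR cells; cell survival read as ATP light after 72 h; 0% = infected wells without compound and 100% = uninfected wells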
RecA splice inh: inhibitors of M. tuberculosis RecA intein splicing; P9WHJ3; cell-free RecA intein splicing, fluorescence; inhibition, %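 (about 9 µM by stock and volumes)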; actives 0.75% (n = 290,000); AID 2221; in the data active means inhibition above about 30%; inconclusive means no clear call, values can overlap the other calls;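 further: 0% = vehicle wells and 100% = reference inhibitor control wells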
Target sequence (P9WHJ3 whole entry, looked up, canonical isoform): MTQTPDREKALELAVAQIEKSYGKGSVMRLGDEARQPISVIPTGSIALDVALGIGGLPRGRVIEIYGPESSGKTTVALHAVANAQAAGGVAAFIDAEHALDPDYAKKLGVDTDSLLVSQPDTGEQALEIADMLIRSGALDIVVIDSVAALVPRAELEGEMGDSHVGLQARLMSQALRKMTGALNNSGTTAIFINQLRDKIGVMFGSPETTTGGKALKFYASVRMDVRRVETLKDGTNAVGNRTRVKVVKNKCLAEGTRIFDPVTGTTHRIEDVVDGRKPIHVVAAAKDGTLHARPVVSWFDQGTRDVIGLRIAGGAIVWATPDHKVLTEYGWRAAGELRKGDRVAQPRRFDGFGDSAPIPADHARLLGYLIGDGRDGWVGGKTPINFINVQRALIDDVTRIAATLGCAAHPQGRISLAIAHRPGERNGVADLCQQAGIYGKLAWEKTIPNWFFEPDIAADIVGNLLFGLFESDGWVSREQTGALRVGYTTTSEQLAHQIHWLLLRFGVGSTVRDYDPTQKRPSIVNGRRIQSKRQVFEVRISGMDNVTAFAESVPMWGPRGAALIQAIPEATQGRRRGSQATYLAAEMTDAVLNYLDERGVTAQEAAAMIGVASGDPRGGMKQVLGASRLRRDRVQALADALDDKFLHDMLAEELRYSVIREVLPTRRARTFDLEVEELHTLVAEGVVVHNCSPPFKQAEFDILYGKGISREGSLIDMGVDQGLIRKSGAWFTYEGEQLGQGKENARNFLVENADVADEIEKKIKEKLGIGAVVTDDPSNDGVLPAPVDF
YopH PTP inh: blocks Yersinia enterocolitica YopH tyrosine phosphatase | AID 898 | fluorescence Ex485/Em525 | inhibition, %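 (about 10 µM by stock and volumes)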 | actives 0.16% (n = 140,000);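 active means inhibition of 50% or more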;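 further: controls were vehicle for no effect and minimum signal wells for full effect; inactives centre near -20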
Arbovirus anti repeat: also measured in Arbovirus anti; calls as there; inhibition, %; measured here: 10K subset replicate screen; many hits read low in the repeat;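 first of two repeat runs on a subset; 0% = infected and 100% = uninfected wells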
An asterisk follows results filed as active; ? = inconclusive; nt = no result given. This is a subset (hit frequency here may not be typical).

SMILES	Mtb growth	Mtb bLac sens	Arbovirus anti	RecA splice inh	YopH PTP inh	others
COc1ccc(CCCc2nnc(SCc3nc4ccccc4c(=O)[nH]3)n2C)cc1C	2%	6	-2	0.6	nt
CCn1c(=O)n(CC)c2cc(S(=O)(=O)N3CCc4ccccc43)ccc21	10%	7	-18	-0.2	-93
CC(=O)Nc1cc2cc(NS(=O)(=O)c3ccc(Cl)cc3)ccc2oc1=O	-3%	-3	nt	3.8	nt
O=C(CCNC(=O)c1ccc(Br)cc1)NCCCSc1ccccc1	nt	-6	nt	1.0	nt
Cc1ccccc1C(=O)Nc1nnc(-c2ccc(F)cc2)o1	1.1µM*	98	-5	2.6	-6	Arbovirus anti repeat=-33
COc1cc(NC(=O)COC(=O)c2ccc(C)c(S(=O)(=O)N3CCCCC3)c2)c(C)cc1[N+](=O)[O-]	11%	-7	2	2.4	-4
Cc1ccc2oc(=O)cc(CN3CCN(Cc4ccccc4)CC3)c2c1	nt	8	nt	-0.1	nt
C/C=C(\C)C(=O)NCCN1C2=NC[C@H](C(C)C)N2C[C@H]1Cc1ccc(O)cc1	-8%	-7	0	-1.6	nt
O=C(NCCN1CCCC1)C1CCN(S(=O)(=O)N2CCC3(CC2)OCCO3)CC1	-2%	10	-3	-0.2	-4
O=C(CN1CCCC1)N1CCCc2c1c(=O)oc1ccc(OCc3ccccc3)cc21	7%	-2	-19	2.3	-37
Cc1cccc(C(=O)O/N=C(\N)c2ccc(Br)cc2)c1	1%	8	5	nt	-1
COc1ccc(-c2cc(C(F)F)n3ncc(C(=O)N4CCCCC4)c3n2)cc1	1%	-7	-8	-14	-9
C=CCSc1nc2c(cnn2-c2ccccc2)c(=O)n1N	-3%	4	nt	1.2	nt
O=C(Cn1c(=O)oc2ccccc21)NCC1COc2ccccc2O1 (configuration not stated)	nt	-6	nt	0.6	nt
COc1cc(=O)n2c(n1)SCCC2	-2%	-11	3	4.1	20
CSc1nc(-c2ccccc2)nc(N2CCN(C)CC2)c1C(C)=O	2%	5	-11	-1.4	-21
COC(=O)Cn1c2ccc(C)cc2c2nc(C)sc21	7%	87	-1	2.6	-21
COc1ccccc1/C=C/c1nc2ccccc2c(=O)o1	nt	15	nt	-28	nt
Cc1c(C(=O)NC2CCCc3ccccc32)oc2ccc(S(=O)(=O)N3CCCCC3)cc12 (configuration not stated)	12%	69	-14	-2.1	8
CC(C)(C)NC(=O)c1ccccc1NC(=O)c1ccc2c(c1)OCO2	-4%	4	-1	-0.3	nt

2 consecutive compounds out of the list so far, quoted:
SMILES	Mtb growth	Mtb bLac sens	Arbovirus anti	RecA splice inh	YopH PTP inh	others
Cc1c(C(=O)NC2CCCc3ccccc32)oc2ccc(S(=O)(=O)N3CCCCC3)cc12 (configuration not stated)	12%	69	-14	-2.1	8
CC(C)(C)NC(=O)c1ccccc1NC(=O)c1ccc2c(c1)OCO2	-4%	4	-1	-0.3	nt

The results go on.
SMILES	Mtb growth	Mtb bLac sens	Arbovirus anti	RecA splice inh	YopH PTP inh	others
Cc1ccc(C(=O)COC(=O)CNC(=O)COc2ccccc2C)cc1C	-5%	5	4	3.6	-37
CCCCCCCCN1C(=O)N(C)C(N(O)C(=O)NC)C1(C)C (configuration not stated)	5%	3	8	1.3	-19
CCCCCCCCC1=NCCc2c1[nH]c1ccccc21	nt	99	nt	-15	nt
O=[N+]([O-])c1ccc2nc(C(O)C(O)c3nc4ccc([N+](=O)[O-])cc4[nH]3)[nH]c2c1 (configuration not stated)	nt	-4	nt	-2.7	nt
Cc1cccc(NC(=O)CCC(=O)c2cccs2)n1	nt	-7	nt	0.9	nt
COc1ccc(CCC(=O)N(C)CC(=O)Nc2ccc(N3CCOCC3)cc2)cc1	1%	-11	4	nt	nt
O=C(Nc1nnc(C2CCCCC2)s1)c1cccs1	-4%	10	10	0.3	-27
C=C(C)CNC(=S)Nc1cccc(S(=O)(=O)NC2=NCCC2)c1	-6%	-6	6	-1.1	nt
COc1cc(C(=O)NNC(=O)c2ccc(NC(C)=O)cc2)cc(OC)c1OC	-12%	-7	14	nt	nt
Cc1cccc(-c2nnc(SCC#N)n2-c2ccccc2)c1	-8%	-4	6	4.3	-14

The closing 5 entries of the part before come first, to join the parts:
SMILES	Mtb growth	Mtb bLac sens	Arbovirus anti	RecA splice inh	YopH PTP inh	others
COc1ccc(CCC(=O)N(C)CC(=O)Nc2ccc(N3CCOCC3)cc2)cc1	1%	-11	4	nt	nt
O=C(Nc1nnc(C2CCCCC2)s1)c1cccs1	-4%	10	10	0.3	-27
C=C(C)CNC(=S)Nc1cccc(S(=O)(=O)NC2=NCCC2)c1	-6%	-6	6	-1.1	nt
COc1cc(C(=O)NNC(=O)c2ccc(NC(C)=O)cc2)cc(OC)c1OC	-12%	-7	14	nt	nt
Cc1cccc(-c2nnc(SCC#N)n2-c2ccccc2)c1	-8%	-4	6	4.3	-14
CC(C)=C1SC(N2CCN(c3cccc(C(F)(F)F)c3)CC2)=NC1=O	-2%	0	-10	22	-16
O=S1(=O)N=C(N/N=C/C=C/c2ccccc2)c2ccccc21	19%	1	-19	-1.1	-25
C=CCc1c(C)nc(C)nc1N/N=C/c1ccccc1O	4%	100	8	-4.9	9
C=CCNC(=S)NNC(=O)c1ccc(OC(C)C)cc1	5%	8	-1	2.3	-14
CCN(CC)C(=O)Cn1cc(S(=O)(=O)CC(=O)NCCc2ccc(OC)c(OC)c2)c2ccccc21	-3%	5	2	-1.5	nt
CC(=O)C1=C(C)Nc2ncnn2C1c1ccc(O)cc1 (configuration not stated)	nt	-8	nt	0.0	nt
CCOC(=O)C1CCCN(S(=O)(=O)c2ccc3c(c2)NC(=O)CO3)C1 (configuration not stated)	nt	-9	nt	-2.1	nt
CC(=O)Oc1c(C)c(=O)n(C)c2ccccc12	9%	0	3	15	-20
O=C(O)CN(CCO)CCN(CC(=O)O)CC(=O)O	8%	nt	-3	nt	-57
Cc1cc(C)nc(SCCCNCc2c(F)cccc2Cl)n1	nt	-7	nt	0.2	nt
CCOc1ccc(NS(=O)(=O)c2ccc(NS(C)(=O)=O)cc2)cc1	-19%	-15	2	-2.3	-24
CCCN1C(=O)/C(=C\C=C2\N(CC)c3ccccc3C2(C)C)SC1=S	-3%	nt	-3	-0.5	nt
Cc1c(C(c2ccc(Br)cc2)c2c(C)n(C)n(-c3ccccc3)c2=O)c(=O)n(-c2ccccc2)n1C	nt	4	nt	1.4	nt
COc1ccc(C(=O)N2CCc3cc4c(cc3C2C)OCCCO4)cc1 (configuration not stated)	nt	9	nt	2.9	nt
COC(=O)NN=C1CCC(c2ccccc2)CC1 (configuration not stated)	nt	0	nt	0.9	nt
O=C1CCCN1CCCNS(=O)(=O)c1ccc(F)c(F)c1	nt	-14	nt	-1.3	nt
O=c1c2ccccc2nc(-c2ccoc2)n1-c1ccccc1	1%	-6	-3	-0.9	-8
Cc1ccc(CN2CCNC(=O)C2CC(=O)NCC(F)(F)F)o1 (configuration not stated)	-5%	-3	0	-0.7	nt
Cc1ccc(Cl)cc1OCC(=O)NCCOC(=O)Nc1sc(=S)n(C)c1C	-2%	2	-12	-3.8	-18
COc1ccc(/C=C/c2ccccc2)cc1[C@H]1[C@H]2C=CC[C@@H](C)[C@@H]2C(=O)N1Cc1ccccc1	13%	0	nt	0.5	nt
O=C(O)CSc1nc2ccc(Cl)cc2[nH]1	7%	-12	-2	0.3	-7
Cc1cc(C)n2nc(SCc3cc(=O)oc4cc(O)ccc34)nc2n1	-15%	-13	3	0.9	-9
Cc1nnc(SCCN2CCOCC2)n1-c1cccc(Cl)c1	-6%	-5	2	nt	-14
COc1ccc(/C=N/NC(=O)CNC(=O)COc2ccccc2)cc1	-3%	9	15	1.1	-33
CC(Oc1ccc(Br)cc1)C(=O)Nn1c(=S)[nH]c2ncccc2c1=O (configuration not stated)	?	0	4	2.5	-28
Cc1cccc(OCc2nnc(SCC(=O)N3CCN(C(=O)c4ccco4)CC3)n2C)c1C	-7%	-4	0	0.0	-12
O=C(CN1C(=O)NC2(CCOc3ccccc32)C1=O)c1ccc(F)cc1 (configuration not stated)	nt	-9	nt	2.2	nt
Nc1nc(-c2cccnc2)nc2sc3c(c12)CCCC3	0%	65	-1	-0.4	nt
CC(C)(C)NC(=O)C(c1ccco1)N(Cc1ccc2c(c1)OCO2)C(=O)Cn1nnc2ccccc21 (configuration not stated)	-1%	4	-1	2.3	-9
CCOC(=O)N1CCN(C(=O)CNC(=O)c2nn(-c3ccc(OC)c(OC)c3)c(=O)c3ccccc23)CC1	nt	1	nt	0.5	nt
O=C(CN1CCN(Cc2ccccc2)CC1)N1CCCc2ccccc21	nt	3	nt	-0.7	nt
N#Cc1ccc(COC(=O)C2CCC(=O)N2)cc1 (configuration not stated)	-7%	-5	-4	-1.1	-8
Cc1ccc(S(=O)(=O)N(C)c2ccc(OCC(=O)NCC3(N(C)C)CCCCC3)cc2)cc1	nt	-12	nt	-0.3	nt
O=S(=O)(NC1CCCC1)c1cccc(-c2nnc(-c3ccccc3)o2)c1	0%	-6	0	1.5	1
O=C(Nc1ccon1)c1ccccc1F	-7%	-3	0	nt	-20
COc1ccc(NC(=O)C2=C(C)Nc3ncnn3C2c2ccccc2C(F)(F)F)c(OC)c1 (configuration not stated)	7%	-4	19	nt	4
CCn1cnc2cc(NCc3nc4ccccc4n3Cc3ccccc3)ccc21	1%	35	5	7.0	-27
COc1cc(C(=O)OC2C[C@H]3CC[C@@H](C2)N3)ccc1O (some centres not stated)	nt	-3	nt	-3.3	nt
CCOC(=O)c1cc(C(=O)NC(C)c2ccccc2)c(=O)[nH]c1C (configuration not stated)	nt	1	nt	2.2	nt
COc1ccc(S(=O)(=O)N2CCCC(C(=O)NC3CCCC3)C2)cc1OC (configuration not stated)	nt	1	nt	1.5	nt
COc1cccc(-c2nnc(SCC(=O)NCc3ccc4c(c3)OCO4)n2Cc2ccco2)c1	3%	-5	-6	4.7	-12
Cc1cccc(C)c1-n1cccc1/C=C1/C(=N)N2C(=NC1=O)SN=C2S(C)(=O)=O	-2%	5	59*	15	nt
COC(=O)C1(C)NC(c2cccs2)C2C(=O)N(c3ccc(F)cc3)C(=O)C21 (configuration not stated)	1%	-5	-3	3.3	-23
Cc1ccc(SCCNC(=O)c2ccc(C)c(S(=O)(=O)Nc3ccccc3C)c2)cc1	1%	1	-25	-3.3	-18
Cc1ccc(NC(=O)c2cc(S(=O)(=O)N3CCCCC3)c[nH]2)cc1F	nt	-1	nt	-1.7	nt
CCc1nc(N2CCN(C(=O)CCl)CC2)c2c3c(sc2n1)CC(C)CC3 (configuration not stated)	nt	101	nt	87*	nt
CCC1c2ccc(C)n2CCN1C(=O)Nc1ccccc1OC (configuration not stated)	0%	-11	-3	-0.3	27
CC1(C)NC(=O)N(CC(O)COc2ccc(N3C(=O)c4ccccc4C3=O)cc2)C1=O (configuration not stated)	1%	-10	1	1.0	-50	Arbovirus anti repeat=3
Cc1nc(N2CCCCC2)c2c(C)c(C(=O)Nc3cccc(C(F)(F)F)c3)sc2n1	31%	71	-18	0.3	nt
COC(=O)C1=C(C)NC(C)=C(C(=O)OC)C1C(=O)OCC(=O)Nc1ccc(C(C)=O)cc1	3%	-8	1	-3.3	nt

(cont.)
SMILES	Mtb growth	Mtb bLac sens	Arbovirus anti	RecA splice inh	YopH PTP inh	others
COc1cccc(/C=N/NC(=O)CSc2ccccc2C)c1O	-1%	-4	-19	0.1	14
O=C(COC(=O)c1ccco1)NCc1cccs1	-2%	-4	13	-0.4	-6
Cc1ccc(NC(=O)CSCC(=O)Nc2nnc(C)s2)cc1	nt	0	nt	-0.8	nt
CCn1nc(NS(=O)(=O)c2ccccc2[N+](=O)[O-])c2cc3ccc(C)cc3nc21	nt	-3	nt	-2.0	nt
Cc1ccc(Cn2c(=N)n(CC(O)COc3ccccc3)c3ccccc32)cc1 (configuration not stated)	23%	77	-33	21	4
O=C(Nc1ccc2c(c1)OCO2)c1ccc(Cl)s1	5%	nt	-14	13	-38
Cn1c(-c2ccccc2)c(/C=N/NC(=O)c2cccnc2)c2ccccc21	-5%	-4	-6	-6.6	nt
O=C(Nc1ccc2oc(=O)ccc2c1)c1cc([N+](=O)[O-])ccc1N1CCOCC1	4%	-3	3	0.6	nt
CC(C)OCCCNC(=O)C(Cc1ccccc1)NS(=O)(=O)c1ccc2c(c1)CCC(=O)N2 (configuration not stated)	nt	-5	nt	-1.1	nt
O=C(/C=C/c1ccc(F)cc1)NCCNC(=O)/C=C/c1ccc(F)cc1	-3%	4	1	-0.1	nt
CCn1cc(C(=O)O)c(=O)c2cc(F)c(N3CCN(C(=O)Nc4ccccc4)CC3)cc21	75%	94	-9	-3.1	-174
Cc1ccc(S(=O)(=O)N2CCN(C(=O)COC(=O)/C=C/c3ccc(F)cc3)CC2)c(C)c1	nt	6	nt	-1.2	nt
CC1CCCN(CCCNC(=O)CCn2nc(-c3ccccc3)ccc2=O)C1 (configuration not stated)	nt	1	-1	2.8	-24
NCC(=O)Nc1ccc(Br)cc1	4%	-14	-20	1.5	nt
